Tb PGK inh: blocks T. brucei phosphoglycerate kinase | P07378 | PGK/GAPDH coupled, Kinase-Glo luminescence, 60 min | Potency, µM (doses to about 57.5 µM), inactives show at the highest dose activity change, negative = inhibition, actives largely listed as inhibitors | hit rate 0.043% among 380,000 | AID 602233; note: potency is the fitted concentration of half-maximal effect; % is set by controls: 0 for no effect and ±100 for the full control effect; nearly all actives have a fitted effect of over 60% in size
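Luminescent ATP detection (Kinase-Glo Plus) follows a 60-minute room-temperature incubation, with wells lacking PGK as controls. Buffer: 100 mM TEA (pH 7.6), 5 mM MgCl2, 0.01% Tween-20. Coupling enzyme GAPDH (100 nM final) supplies unstable 1,3-BPG in-well.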
BLM helicase inh: inhibitors of human Bloom syndrome helicase BLM. P54132. recombinant BLM DNA unwinding, fluorescence dequenching. Potency, µM (highest dose often 56.1 µM), for the others: top-dose activity change, negative = inhibition, actives largely listed as inhibitors. hit rate 0.2% among 350,000. AID 2528;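 note: potency is the fitted concentration of half-maximal effect; plate controls were vehicle for no effect and no enzyme for full effect; nearly all actives have a fitted effect of over 35% in size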
POLK inh: blocks human DNA polymerase kappa activity. hit rate 0.53% among 400,000. Q9UBT6. purified Pol kappa, fluorescent DNA synthesis assay, 10 min. AID 588579. Potency, µM (highest dose often 107 µM), for inactives: at the top dose activity, negative = inhibition, hits mostly inhibitors; note: potency is the fitted concentration of half-maximal effect; % is set by controls: 0 for no effect and ±100 for the full control effect
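10 nM Pol kappa was preincubated with compounds for 15 min at room temperature. Reaction started with 50 nM (final) substrate. Fluorescence read kinetically at 0 and 10 min.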
POLI inh: blocks human DNA polymerase iota activity; Q9UNA4; hit rate 1% among 390,000; AID 588590; Pol iota fluorescent replication assay, 10 min; Potency, µM (titrated, usually from 115 µM), inactives show at the top dose activity, negative = inhibition, actives largely listed as inhibitors; note: potency is the fitted concentration of half-maximal effect
Target sequence (Q9UNA4 whole entry, looked up): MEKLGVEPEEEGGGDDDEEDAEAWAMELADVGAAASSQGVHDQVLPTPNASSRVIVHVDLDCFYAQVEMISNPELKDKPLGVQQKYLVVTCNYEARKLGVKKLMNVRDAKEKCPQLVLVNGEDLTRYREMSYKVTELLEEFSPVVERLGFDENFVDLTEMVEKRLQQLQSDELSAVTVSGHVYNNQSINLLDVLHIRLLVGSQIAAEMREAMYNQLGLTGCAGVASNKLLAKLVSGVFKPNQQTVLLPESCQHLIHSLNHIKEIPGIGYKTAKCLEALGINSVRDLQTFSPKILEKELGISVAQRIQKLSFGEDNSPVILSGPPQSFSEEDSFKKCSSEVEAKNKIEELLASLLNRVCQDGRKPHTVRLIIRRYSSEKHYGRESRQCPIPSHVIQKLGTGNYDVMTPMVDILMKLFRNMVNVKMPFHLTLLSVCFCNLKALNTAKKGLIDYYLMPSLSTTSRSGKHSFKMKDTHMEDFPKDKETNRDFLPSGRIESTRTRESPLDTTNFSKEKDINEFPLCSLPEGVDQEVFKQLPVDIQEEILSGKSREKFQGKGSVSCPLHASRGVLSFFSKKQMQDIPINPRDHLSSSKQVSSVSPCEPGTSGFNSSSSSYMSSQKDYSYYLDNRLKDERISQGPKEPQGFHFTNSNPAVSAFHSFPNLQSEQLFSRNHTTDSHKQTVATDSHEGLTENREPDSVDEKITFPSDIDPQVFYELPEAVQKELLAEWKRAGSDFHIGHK
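Fluorescent replication assay read twice, at 0 min and 10 min after adding 50 nM (final) substrate. Enzyme (10 nM) and compounds were first incubated 15 min at room temperature; enzyme-free buffer wells were negative controls.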
Anesthetic bind: candidate novel general anesthetic via apoferritin binding. Potency, µM (titrated, usually from 77.5 µM), inactives show top-dose activity change, negative = displacement, most hits filed as inhibitors. AID 485281. P02791. hit rate 0.074% among 350,000. apoferritin/1-aminoanthracene competitive binding, fluorescence; note: potency is the fitted concentration of half-maximal effect; % is set by controls: 0 for no effect and ±100 for the full control effect; nearly all actives have a fitted effect of over 20% in size
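In PBS, apoferritin at 10 uM is loaded with 1-AMA from a 50% saturated solution. After 10 min of compound exposure at ambient temperature, reduced 535 nm fluorescence indicates probe displacement.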
RXFP1 antag: antagonists of human relaxin receptor RXFP1; hit rate 0.59% among 350,000; HEK293-RXFP1, relaxin-stimulated cAMP HTRF, 30 min; stronger effect = lower value; activity change, negative = inhibition, % at 57.5 µM;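 active = activity change of -60% or lower, but not beyond a set lower limit; inconclusive = change between -60% and -40%, or beyond the set limit; inactive = change above -40%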; note: % is set by controls: 0 for no effect and ±100 for the full control effect
Starred values were filed as active, the others as inactive; i = inactive; u = inconclusive; x = not tested or not shown; & = joins results of further samples; [ ] = another dose, or the depositor's remark. Unless noted, calls come from the whole dose curve; as a rule, active = well fitted curve in the direction sought with a large enough effect; inconclusive = small, poorly fitted or top-dose-only effect, or another doubt; inactive = no such curve, though single readings can be large; an effect the other way counts as inactive or inconclusive.

| no. | Tb PGK inh | BLM helicase inh | mol | POLK inh | POLI inh | Anesthetic bind | RXFP1 antag |
| --- | --- | --- | --- | --- | --- | --- | --- |
| 1 | -10% | u | O=C(/C=C/c1ccco1)OCc1nnc(-c2ccc(Cl)cc2)o1 | -22% | u | u | -24 |
| 2 | -4% | -6% | COc1ccc(Nc2ccc(OC)cc2)cc1 | -10% | -7% | -8% | -28 |
| 3 | 3% | 0% | Cc1cc(OCc2nc(-c3ccc(NC(=O)c4cccnc4)cc3)no2)ccc1Cl | -12% | 1%[58.9 µM] | -6% | 22 |
| 4 | 3% | -3% | Cc1ccc(NC(=O)N2CCCC2C(=O)Nc2c(C)cc(C)cc2C)cc1 (stereo not given) | -1% | 65%[activator] | 0% | -4 |
| 5 | -3% | -26% | O=C(/C=C/c1ccco1)Nc1cccc2cccnc12 | 28µM* | 6.3µM* | -16% | -22 |
| 6 | -5% | -7% | CC(C)c1ccc(CCNC(=O)CCNC(=O)c2ccc(Br)cc2)cc1 | -6% | 18% | -2% | -3 |
| 7 | 9% | x | CC1CC(C)CN(C(=O)COC(=O)c2ccc(S(=O)(=O)N(C)c3ccccc3)cc2)C1 (stereo not given) | 0% | 7% | x | -3 |
| 8 | 1% | 1% | Cc1nc2ccc(C(=O)O)cc2nc1C | -3% | -7% | 3% | -11 |
| 9 | -5% | -2% | Cc1nc2cc(NC(=O)NCc3ccccc3)ccc2o1 | -18% | 57%[activator] | -6% | -9 |
| 10 | -5% | -11% | O=C(Cn1nc(-c2ccccc2)nc1-c1ccccc1)OC1CCCCC1 | -1% | 15% | 44%[activator] | -22 |
| 11 | i | -3% | COc1ccc2nc(N(CCN(C)C)C(=O)/C=C/c3cccs3)sc2c1 | -2% | 9% | -16% | 0 |
| 12 | -8% | -15% | CCN(CC)C(=O)COc1ccc2oc(-c3ccco3)cc(=O)c2c1 | -8% | u | -15% | 0 |
| 13 | -1% | 1% | O=C(Cn1cnc(S(=O)(=O)N2CCCCC2)c1)NCc1ccco1 | -2% | 13% | -7% | -6 |
| 14 | -14% | -19% | O=c1oc2c(O)cccc2cc1-c1nc2ccccc2[nH]1 | -16% | u | 599%[activator] | 8 |
| 15 | x | -1% | CCCCC1=CC2=C(OC(C)=O)C(=O)C(C)(OC(=O)CC)C(=O)C2=CO1 (stereo not given) | x | x | x | x |
| 16 | -7% | -9% | CCOC(=O)N1CCc2c(sc(NC(=O)C3COc4ccccc4O3)c2C(N)=O)C1 (stereo not given) | -1% | -2% | -16% | -9 |
| 17 | -1% | -4% | Cc1ncc([N+](=O)[O-])n1CCO | -10% | 13% | 5% | 31 |
| 18 | 0% | -3% | O=C(N/N=C/c1ccccn1)c1cc(Br)ccc1O | -7% | -12% | -1% | -11 |
| 19 | -8% | -18% | CC(C)(C)C1=CC(O)(c2ccccc2)C=C(C(C)(C)C)C1=O | -25% | 9% | 10% | -20 |
| 20 | i | 2% | COc1ccc2oc(-c3ccco3)cc(=O)c2c1 | 8% | 7% | 6% | 0 |
| 21 | -3% | -5% | COc1ccccc1NC(=O)C(=O)N(c1cccnc1)C(C(=O)NC(C)(C)C)c1ccccc1F (stereo not given) | -15% | -28% | -14% | -5 |
| 22 | -8% | 1% | CCOC(=O)c1c(NC(=O)C2COc3ccccc3O2)sc(C(C)=O)c1C (stereo not given) | -10% | -13% | -6% | 2 |
| 23 | x | -17% | O=C(/C=C/c1c(C(=O)O)[nH]c2cc(Cl)cc(Cl)c12)Nc1ccccc1 | x | x | -16% | x |
| 24 | 0%&-4% | -3%&0% | Cc1cccc(NC(=O)CSc2nc(C)c(Cc3ccccc3)c(=O)[nH]2)c1 | -18%&-21% | -26%&-13% | u | 7 |
| 25 | 6% | -4% | CC1CCN(S(=O)(=O)c2cn(CC(=O)N3CCN(c4cccc(C(F)(F)F)c4)CC3)cn2)CC1 | u | -18% | -8% | -27 |

Given with values ahead of the structure: part of the list above
item | Tb PGK inh | BLM helicase inh | POLK inh | POLI inh | Anesthetic bind | RXFP1 antag | SMILES
7 | 9% | x | 0% | 7% | x | -3 | CC1CC(C)CN(C(=O)COC(=O)c2ccc(S(=O)(=O)N(C)c3ccccc3)cc2)C1 (stereo not given)
8 | 1% | 1% | -3% | -7% | 3% | -11 | Cc1nc2ccc(C(=O)O)cc2nc1C
9 | -5% | -2% | -18% | 57%[activator] | -6% | -9 | Cc1nc2cc(NC(=O)NCc3ccccc3)ccc2o1
10 | -5% | -11% | -1% | 15% | 44%[activator] | -22 | O=C(Cn1nc(-c2ccccc2)nc1-c1ccccc1)OC1CCCCC1
11 | i | -3% | -2% | 9% | -16% | 0 | COc1ccc2nc(N(CCN(C)C)C(=O)/C=C/c3cccs3)sc2c1
12 | -8% | -15% | -8% | u | -15% | 0 | CCN(CC)C(=O)COc1ccc2oc(-c3ccco3)cc(=O)c2c1
13 | -1% | 1% | -2% | 13% | -7% | -6 | O=C(Cn1cnc(S(=O)(=O)N2CCCCC2)c1)NCc1ccco1
14 | -14% | -19% | -16% | u | 599%[activator] | 8 | O=c1oc2c(O)cccc2cc1-c1nc2ccccc2[nH]1
15 | x | -1% | x | x | x | x | CCCCC1=CC2=C(OC(C)=O)C(=O)C(C)(OC(=O)CC)C(=O)C2=CO1 (stereo not given)
16 | -7% | -9% | -1% | -2% | -16% | -9 | CCOC(=O)N1CCc2c(sc(NC(=O)C3COc4ccccc4O3)c2C(N)=O)C1 (stereo not given)
17 | -1% | -4% | -10% | 13% | 5% | 31 | Cc1ncc([N+](=O)[O-])n1CCO
18 | 0% | -3% | -7% | -12% | -1% | -11 | O=C(N/N=C/c1ccccn1)c1cc(Br)ccc1O
19 | -8% | -18% | -25% | 9% | 10% | -20 | CC(C)(C)C1=CC(O)(c2ccccc2)C=C(C(C)(C)C)C1=O
20 | i | 2% | 8% | 7% | 6% | 0 | COc1ccc2oc(-c3ccco3)cc(=O)c2c1
21 | -3% | -5% | -15% | -28% | -14% | -5 | COc1ccccc1NC(=O)C(=O)N(c1cccnc1)C(C(=O)NC(C)(C)C)c1ccccc1F (stereo not given)
22 | -8% | 1% | -10% | -13% | -6% | 2 | CCOC(=O)c1c(NC(=O)C2COc3ccccc3O2)sc(C(C)=O)c1C (stereo not given)

A draw from above in order of length of the SMILES, rising:
| no. | Tb PGK inh | BLM helicase inh | mol | POLK inh | POLI inh | Anesthetic bind | RXFP1 antag |
| --- | --- | --- | --- | --- | --- | --- | --- |
| 5 | -3% | -26% | O=C(/C=C/c1ccco1)Nc1cccc2cccnc12 | 28µM* | 6.3µM* | -16% | -22 |
| 12 | -8% | -15% | CCN(CC)C(=O)COc1ccc2oc(-c3ccco3)cc(=O)c2c1 | -8% | u | -15% | 0 |
| 6 | -5% | -7% | CC(C)c1ccc(CCNC(=O)CCNC(=O)c2ccc(Br)cc2)cc1 | -6% | 18% | -2% | -3 |

Screens: PubChem, National Center for Advancing Translational Sciences (NCATS)

This is a subset; count on the stated rates, not on these rows.
